# High-throughput results: PubChem, ICCB-Longwood Screening Facility, Harvard Medical School
# Polio RdRp inh = poliovirus RdRp elongation inhibitors, primary screen, biochemical, fluorescence polarization, total intensity; poliovirus polymerase elongation; hits give low values; AID 588519, 2011; Genome polyprotein (Poliovirus type 1 (strain Mahoney)), P03300; % elongation, % (compound at 16.7 µg/mL); 0.66% of 150,000 active; in the data active = % elongation below about 90%; also: some results filed as inactive read as strong as hits
# Target sequence (P03300 1749-2209 limits assumed): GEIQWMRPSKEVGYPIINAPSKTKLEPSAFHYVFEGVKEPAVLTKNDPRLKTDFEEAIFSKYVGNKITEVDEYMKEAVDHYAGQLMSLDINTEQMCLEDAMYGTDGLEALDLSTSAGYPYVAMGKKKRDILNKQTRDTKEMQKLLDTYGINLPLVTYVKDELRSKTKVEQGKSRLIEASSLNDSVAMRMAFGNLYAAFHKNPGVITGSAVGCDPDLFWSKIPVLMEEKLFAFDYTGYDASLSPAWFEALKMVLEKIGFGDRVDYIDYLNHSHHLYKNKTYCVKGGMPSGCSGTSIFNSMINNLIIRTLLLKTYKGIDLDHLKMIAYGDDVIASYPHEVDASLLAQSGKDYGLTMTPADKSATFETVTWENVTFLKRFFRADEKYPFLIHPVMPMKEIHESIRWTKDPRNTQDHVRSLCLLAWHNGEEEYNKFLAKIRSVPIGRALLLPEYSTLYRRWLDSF
# Mtb MbtI inh = MbtI salicylate synthase inhibitors, primary screen, biochemical, fluorescence intensity; 0.89% of 100,000 active; purified MbtI enzyme, fluorescence intensity read-out; inhibition, %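 (about 17 µg/mL by stock and volumes)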;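 active = above 50% in both replicates, above 80% if mildly self-fluorescent; inactive = the rest, strongly fluorescent compounds included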;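 also: 0% = mean of negative and 100% = mean of positive controls; one replicate is shown; some compounds called inactive have numbers as strong as hits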
# MenB inh = M. tuberculosis MenB inhibitors, primary screen, biochemical, absorbance. 1,4-dihydroxy-2-naphthoyl-CoA synthase (Mycobacterium tuberculosis (strain ATCC 25618 / …. MenB enzyme assay, absorbance read-out; some hits fall short of the stated cut. inhibition, %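 (about 12 µg/mL by stock and volumes)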. 0.43% of 100,000 active. AID 540299, 2011;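 active = mean of two replicates above 30%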;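 also: 0% = no compound and 100% = wells with inactive enzyme; the first replicate is given; strong numbers were not always called active; inactives centre near -10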
# Target sequence (P9WNP5 whole entry, looked up): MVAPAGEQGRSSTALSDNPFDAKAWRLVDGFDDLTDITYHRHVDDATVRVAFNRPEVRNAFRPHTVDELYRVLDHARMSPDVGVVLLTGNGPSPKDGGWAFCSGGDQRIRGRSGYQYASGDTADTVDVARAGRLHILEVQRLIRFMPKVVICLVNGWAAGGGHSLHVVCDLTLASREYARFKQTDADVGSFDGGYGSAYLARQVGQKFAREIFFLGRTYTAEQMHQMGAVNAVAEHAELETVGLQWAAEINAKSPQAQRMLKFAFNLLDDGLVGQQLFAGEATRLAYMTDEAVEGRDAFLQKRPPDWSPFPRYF
# Polio RdRp inh intensity = second read-out of Polio RdRp inh, no call of its own (marks repeat the call); % elongation; measured here: total intensity read-out; formula for this scale not given here;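 total fluorescence in place of polarization; lower means less elongation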
# * hit, by the source's call; / = not tested or not shown.
SMILES,Polio RdRp inh,Polio RdRp inh intensity,Mtb MbtI inh,MenB inh
O=S(=O)(NCc1ccncc1)c1ccccc1,105,109,/,1
Cc1noc(C)c1COc1ccc(C(=O)N2CCOCC2)cc1,101,94,6,16
COc1ccc2c(c1)c(C(=O)Nc1nccs1)c(C)n2C1CCCCC1,108,110,-172,2
C=CCN1C(=O)CSC1=Nc1ccc(C(=O)O)cc1,103,103,1,-10
O=C(O)CN1C(=O)/C(=C2\SC(=Nc3ccc(Br)cc3)NC2=O)c2ccccc21,109,116,-23,-46
Cc1cc(NS(=O)(=O)c2ccc(NC(=O)CSc3nnc(-c4ccccn4)n3Cc3ccco3)cc2)nc(C)n1,101,104,-14,11
CCC(=O)c1c(C)nc2n(Cc3ccccc3)c3ccccc3n12,105,109,-11,-2
N#CC(C#N)=C(N)Nc1cccc(Cl)c1,103,104,/,-19
CC(C)Nc1cc(-c2ccccc2)nc2nncn12,100,96,-3,-13
CCOC(=O)c1s/c(=N/N=C(C)C)n(C)c1C,102,101,56*,-15
Cc1ccc2c(n1)CC(C)(C)C/C2=N/O,100,102,12,6
CCS(=O)(=O)c1ccc(O)c(-n2c(=S)[nH]c3ccccc3c2=O)c1,101,101,6,7
O=C(NCCN1CCOCC1)c1ccc(-c2ccccc2)cc1,99,105,/,-17
CNC(=O)/C(=C\C=C\c1ccccc1)NC(=O)c1ccccc1,104,104,12,/
Cc1nn(-c2ccccc2)cc1/C=C1/CN(C)C/C(=C/c2cn(-c3ccccc3)nc2C)C1=O,110,108,5,-26
CC(C)/C=C1\CCCCC1O (stereo unspecified),102,106,-9,/
C=CCN(CC=C)C(=O)c1csc(Nc2ccc(C)cc2)n1,102,107,/,-13
COC(=O)C(C)Sc1ccc2nnc(-c3cccnc3)n2n1 (stereo unspecified),99,104,159,11
O=C(OCC(=O)N1CCCC1=O)c1ccc2ccccc2n1,100,105,20,12
CC(C)(C)C(=O)Nc1c(Br)c(C2CC2)nn1-c1ccccc1,101,103,-8,-6

# The closing five records of the part above open the next one:
SMILES,Polio RdRp inh,Polio RdRp inh intensity,Mtb MbtI inh,MenB inh
CC(C)/C=C1\CCCCC1O (stereo unspecified),102,106,-9,/
C=CCN(CC=C)C(=O)c1csc(Nc2ccc(C)cc2)n1,102,107,/,-13
COC(=O)C(C)Sc1ccc2nnc(-c3cccnc3)n2n1 (stereo unspecified),99,104,159,11
O=C(OCC(=O)N1CCCC1=O)c1ccc2ccccc2n1,100,105,20,12
CC(C)(C)C(=O)Nc1c(Br)c(C2CC2)nn1-c1ccccc1,101,103,-8,-6
O=C(CC1CCCC1)OCc1cccs1,102,97,-1,/
O=C(CCC1CCCC1)OCc1nnc(-c2ccccc2Br)o1,109,115,-11,-53
CN(C)C1CCCCC1NS(=O)(=O)c1ccccc1 (stereo unspecified),102,107,-6,11
CCOc1ccc(-c2csc(NC(=O)CC)n2)cc1,101,104,/,-4
Cc1ccc(C)c(-n2nnnc2SCC(=O)N2CCCCC2C(N)=O)c1 (stereo unspecified),99,107,-13,0
Cc1ccccc1-n1c2c(c(=O)[nH]c1=S)CN(Cc1ccco1)CN2,100,102,10,19
O=CN/N=C/c1cn(-c2cccs2)nc1-c1ccccc1,103,101,-14,-4
CCOC(=O)COc1nc(-c2ccco2)cc(-c2ccco2)c1C#N,101,103,13,6
O=S(=O)(CCSc1ccccn1)c1nc2ccccc2s1,98,103,20,12
Cc1c(C(=O)OCC(=O)Nc2ccc(C#N)cc2)oc2ccccc12,107,101,0,-8
CC1(C)C(=O)NCCN1C(=O)CCC(=O)O,100,101,-2,31*
COc1ccc(N2C(=O)CSC23C(=O)N(CN2CCCC(C)C2)c2ccccc23)cc1 (stereo unspecified),102,102,2,-2
COc1ccc(OCC(O)CNS(=O)(=O)c2ccc(C)cc2)cc1 (stereo unspecified),103,101,4,-10
CCOc1ccc(NC(=O)N(CCc2ccncc2)C(C)C)cc1,102,102,-15,0
O=S(=O)(Cc1ccc(Cl)cc1)c1nc2ccccc2[nH]1,98,101,0,-12
COc1cc(NC(=O)c2cc3ccccc3cc2OCC(=O)NC(C)(C)C)c(OC)cc1Cl,103,104,/,-7
CCNc1c(NS(=O)(=O)c2ccc(F)cc2)c(=O)oc2ccccc12,97,105,-9,-4
O=C(O)C=C1C2CC3CC(C2)CC1C3,101,93,-6,6
COC(=O)c1ccc(-n2c(C)cc(C(=O)CSc3ncnc4sc5c(c34)CCC5)c2C)cc1,102,107,2,9
NS(=O)(=O)c1ccc(CCNC2=CC(=O)CC(c3ccco3)C2)cc1 (stereo unspecified),100,104,2,-2

# Taken from above (five entries):
SMILES,Polio RdRp inh,Polio RdRp inh intensity,Mtb MbtI inh,MenB inh
COc1cc(NC(=O)c2cc3ccccc3cc2OCC(=O)NC(C)(C)C)c(OC)cc1Cl,103,104,/,-7
CCNc1c(NS(=O)(=O)c2ccc(F)cc2)c(=O)oc2ccccc12,97,105,-9,-4
O=C(O)C=C1C2CC3CC(C2)CC1C3,101,93,-6,6
COC(=O)c1ccc(-n2c(C)cc(C(=O)CSc3ncnc4sc5c(c34)CCC5)c2C)cc1,102,107,2,9
NS(=O)(=O)c1ccc(CCNC2=CC(=O)CC(c3ccco3)C2)cc1 (stereo unspecified),100,104,2,-2

# The main list resumes, starting five compounds before the break.
SMILES,Polio RdRp inh,Polio RdRp inh intensity,Mtb MbtI inh,MenB inh
COc1cc(NC(=O)c2cc3ccccc3cc2OCC(=O)NC(C)(C)C)c(OC)cc1Cl,103,104,/,-7
CCNc1c(NS(=O)(=O)c2ccc(F)cc2)c(=O)oc2ccccc12,97,105,-9,-4
O=C(O)C=C1C2CC3CC(C2)CC1C3,101,93,-6,6
COC(=O)c1ccc(-n2c(C)cc(C(=O)CSc3ncnc4sc5c(c34)CCC5)c2C)cc1,102,107,2,9
NS(=O)(=O)c1ccc(CCNC2=CC(=O)CC(c3ccco3)C2)cc1 (stereo unspecified),100,104,2,-2
CC(C)(C)P(=NC(=O)C(F)(F)F)(N1CCCCC1)N1CCCCC1,99,108,15,-3
O=C(NC(=S)NC12CC3CC(CC(C3)C1)C2)c1ccco1,103,103,-6,-8
CC(=O)NC(=O)CCSc1ccccc1C(=O)NC(C)=O,102,105,21,-1
O=C(CS(=O)(=O)Cc1ccccc1)Nc1ccc2c(c1)OCCO2,101,104,/,-5
Cc1nnc(COC(=O)c2cccc(S(=O)(=O)N3CCCCC3C)c2)o1 (stereo unspecified),103,97,1,5
COc1ccc(Cl)cc1NC1=NC2CS(=O)(=O)CC2S1 (stereo unspecified),99,93,63*,-17
CCc1ccc(NC(=O)c2cc(S(=O)(=O)N3CCCC3)c[nH]2)cc1,103,106,28,-7
CC(NS(=O)(=O)c1ccc(C(C)(C)C)cc1)c1ccccc1 (stereo unspecified),98,93,-5,10
COc1ccc(-c2nc(CN3CCC(C(=O)NC4CCN(Cc5ccccc5)CC4)CC3)c(C)o2)cc1OC,101,101,30,-23
CC(C)(CSc1ncccn1)NS(=O)(=O)c1ccccc1,99,102,-16,-17
COc1ccc(CCN2C(=O)C(C)SC2c2cccnc2)cc1 (stereo unspecified),105,107,-1,-23
CCOc1ccc(OCC)c(S(=O)(=O)n2cccn2)c1,102,99,-21,-41
Nc1ccccc1C1C=NNC1=O (stereo unspecified),149,158,7,-53
CC1=C(C(=O)OC2CCCC2)C(c2cccc(Cl)c2)CC(=O)N1 (stereo unspecified),101,108,-10,-16
CCOC(=O)c1c(CSCCN(CC)CC)oc2ccc(OC)cc12,102,105,4,-10
O=C(Cc1cccc2ccccc12)Nc1ccc(N2CCOCC2)c(Cl)c1,102,105,-6,-29
O=C1OCCC1Sc1nc(C2CCCCC2)n(-c2ccccc2)n1 (stereo unspecified),104,104,-4,-24
CN(CC(=O)N(C1CCCCC1)C1CCS(=O)(=O)C1)Cc1nc2ccccc2c(=O)[nH]1 (stereo unspecified),104,106,2,-36
Cc1ccc(NC(=O)CN(C)C(=O)COc2cccc3cccnc23)cc1,99,83,26,-39
O=C(/C=C/c1cc(Br)ccc1F)OCC(=O)N1CCOCC1,98,100,30,2
COc1cc(C(=O)OC(C)CN2C(C)CCCC2C)cc(OC)c1OC (stereo unspecified),103,102,9,-18
CCN(CC)c1ccc(C2C(C#N)=C(N)N(c3cccc(C)c3)C3=C2C(=O)CCC3)cc1 (stereo unspecified),101,100,21,1
Cc1ccc(C)n1CCN1CCN(S(=O)(=O)c2ccccc2)CC1,101,96,0,/
COc1cccc(C2CC(C(F)(F)F)n3ncc(C(=O)N4CCCCC4)c3N2)c1 (stereo unspecified),102,102,-8,-31
CC[n+]1ccsc1N,104,108,-9,/
O=C(Cc1ccccc1)N1CCSC1=S,104,99,-15,-36
COc1ccc2c(c1)N(C)/C(=C1/SC(=Nc3ccc(C)cc3)N(C)C1=O)S2,102,103,9,-16
O=C1NC2C3CC4CC(C3)CC2(C4)O1 (stereo unspecified),104,96,13,-18
Cc1oc2ncn(CC(C)C)c(=O)c2c1C(=O)NCC1CCN(Cc2ccc(F)cc2)CC1,105,103,-18,-17
CC(C)Nc1nc(NC(C)C)nc(Nn2cnnc2)n1,101,97,/,-15
N#CC(C#N)=Cc1ccc(-c2ccccc2)o1,77,198,-1,-21
COC(=O)C1=CN(C2CC2)C=C(C(=O)OC)C1c1ccc(O)cc1,100,103,114,-3
CC1=C(C(=O)OC(C)C(C)(C)C)C(c2cccc(Br)c2)NC(=O)N1 (stereo unspecified),100,92,-7,-18
O=C(Nc1ccc2nc3n(c(=O)c2c1)CCCC3)c1cccc(F)c1,105,102,2,-10
N#CC(C#N)=C1CCCCCN1,101,102,-3,-41
Cc1nc(Nc2nc3ccccc3o2)nc(-c2ccc(Cl)cc2)c1C#N,102,106,-6,-24
Cc1ccc(NC(=O)Cn2ccsc2=N)c(Br)c1,99,108,7,-7
NC(N)=NS(=O)(=O)c1ccc(N=Cc2ccccc2O)cc1,111,108,/,-16
O=C(COC(=O)C1CC(=O)N(Cc2ccco2)C1)c1ccc(OC(=O)c2ccco2)cc1 (stereo unspecified),100,102,9,-28
COC(=O)c1sccc1NC(=O)CC(=O)C(F)(F)F,104,101,47,-12

# Four compounds picked at random from the list so far:
SMILES,Polio RdRp inh,Polio RdRp inh intensity,Mtb MbtI inh,MenB inh
COC(=O)c1sccc1NC(=O)CC(=O)C(F)(F)F,104,101,47,-12
Cc1ccc(C)n1CCN1CCN(S(=O)(=O)c2ccccc2)CC1,101,96,0,/
COc1cccc(C2CC(C(F)(F)F)n3ncc(C(=O)N4CCCCC4)c3N2)c1 (stereo unspecified),102,102,-8,-31
CCN(CC)c1ccc(C2C(C#N)=C(N)N(c3cccc(C)c3)C3=C2C(=O)CCC3)cc1 (stereo unspecified),101,100,21,1

# (list continues)
SMILES,Polio RdRp inh,Polio RdRp inh intensity,Mtb MbtI inh,MenB inh
O=C(NC1=NCCCCC1)c1ccccc1,100,98,-7,/
Cc1cccc(OCc2nnc(SCC(=O)c3ccc4c(c3)NC(=O)CO4)o2)c1,105,106,-8,-16
O=C(O)CCc1nc2ccccc2c(=O)[nH]1,100,101,1,/
CCN(Cc1ccccc1)c1sc(S(=O)(=O)CC)nc1S(=O)(=O)c1ccc(C)cc1,102,104,2,-25
COc1ccccc1CNc1nc(-c2cc(C)n(C)c2C)cs1,104,106,19,-33
CCn1c(COC(=O)/C=C/c2nc3ccccc3s2)nc2cc(S(=O)(=O)N(C)C)ccc21,109,117,-10,-17
CC(=O)Nn1cnc2ccccc21,102,108,-16,/
CSc1ccc2nnc(-c3ccc(F)cc3)n2n1,103,102,17,-4
Cc1ccc2c(c1)NC(c1ccc(N(C)C)cc1)O2 (stereo unspecified),116,127,-2,-17
CCNc1nc(-c2cccc(C(F)(F)F)c2)cs1,105,108,89,-20
Cc1c(OCC(=O)NC2CCCC2)ccc2c1oc(=O)c1ccccc12,101,104,4,/
O=C(Cc1ccc(S(=O)(=O)N2CCCC2)s1)Nc1ccc2c(c1)OCO2,102,100,1,-18
Cc1cc(=O)[nH]c(SC(C)C(=O)NC2CCCCC2)n1 (stereo unspecified),/,/,-3,3
Cc1cccc(NC(=O)Cn2c(=O)n3nc(CCn4nc(C)cc4C)nc3c3ccccc32)c1,101,103,-5,7
CC(NC(=O)COn1nnc2ccccc21)C1CC2CCC1C2 (stereo unspecified),99,103,-1,-17
Cc1[nH]nc2c1C(c1ccccc1)C1=C(CC(C)(C)CC1=O)N2 (stereo unspecified),101,104,30,7
O=S(=O)(NCc1ccco1)c1ccc2c(c1)Cc1ccccc1-2,103,106,-34,-20
C=C(C)C(=O)Nc1ccc2c(c1)C(=O)NC2=O,105,109,181,-12
COCC(C)n1c(SC(C)C(=O)NC2(C#N)CCCCC2)nc2ccccc2c1=O (stereo unspecified),100,106,-8,-14
NC(=O)/C=C/C(=O)NCc1ccccc1,98,100,18,-71
NNc1nc2c(c(=O)[nH]1)C1(CCCCC1)Cc1ccccc1-2,102,105,-25,-35
